EPAC1 agonist: human EPAC1 agonism, validation. O95398. EPAC1 Rap1b BODIPY-GDP exchange, fluorescence. Potency, µM, without a hit: max response, positive = active, actives largely listed as activators. 16,000 compounds, 1% hits. AID 1645883; active means well fitted activation curve with a large enough effect; inconclusive means small, poorly fitted or top-dose-only effect; inactive means no such curve, though single readings can be large or run the other way;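 further: nearly all actives have a fitted effect of over 70% in size; series mostly up to about 76 or 150 µM; scaled to a cAMP control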
Target sequence (O95398 whole entry, looked up): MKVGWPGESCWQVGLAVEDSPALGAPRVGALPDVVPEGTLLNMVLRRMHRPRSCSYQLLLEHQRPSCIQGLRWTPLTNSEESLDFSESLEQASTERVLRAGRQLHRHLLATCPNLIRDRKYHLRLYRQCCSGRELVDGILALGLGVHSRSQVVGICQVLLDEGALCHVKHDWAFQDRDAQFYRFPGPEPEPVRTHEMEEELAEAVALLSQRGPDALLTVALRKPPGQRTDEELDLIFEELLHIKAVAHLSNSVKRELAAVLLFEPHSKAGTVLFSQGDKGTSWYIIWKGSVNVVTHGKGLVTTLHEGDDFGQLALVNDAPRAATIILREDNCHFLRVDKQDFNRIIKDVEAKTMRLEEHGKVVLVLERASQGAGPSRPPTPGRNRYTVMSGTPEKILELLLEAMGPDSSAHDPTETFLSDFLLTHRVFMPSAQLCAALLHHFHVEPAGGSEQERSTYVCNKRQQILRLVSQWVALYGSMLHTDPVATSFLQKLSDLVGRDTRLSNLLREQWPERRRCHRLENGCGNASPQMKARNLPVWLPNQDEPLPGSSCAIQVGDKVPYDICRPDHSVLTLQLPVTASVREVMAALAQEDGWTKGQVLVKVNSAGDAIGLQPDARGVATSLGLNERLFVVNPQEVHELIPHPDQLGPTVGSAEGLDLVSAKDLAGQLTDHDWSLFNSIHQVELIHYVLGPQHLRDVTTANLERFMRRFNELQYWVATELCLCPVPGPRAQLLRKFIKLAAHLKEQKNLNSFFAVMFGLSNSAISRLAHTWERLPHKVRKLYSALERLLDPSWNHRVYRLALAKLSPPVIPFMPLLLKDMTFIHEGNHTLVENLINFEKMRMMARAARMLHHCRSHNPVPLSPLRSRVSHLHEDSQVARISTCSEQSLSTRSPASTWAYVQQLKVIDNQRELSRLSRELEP
Active calls of the source: *; ? = inconclusive; & = joins results of further samples; [ ] = dose if it differs, or a comment. On the % scale 0 is the no-effect control and ±100 the full control effect; potency means the concentration at half of the fitted maximal effect.

item	EPAC1 agonist	SMILES
1	-12%	Cc1noc(C)c1C(=O)N1CCC2(CC1)CN(c1cccc(-c3ccccc3)c1)C2
2	4%	Cc1cn(C2CC(N=[N+]=[N-])C(CO)O2)c(=O)[nH]c1=O (configuration not stated)
3	3%	COc1cccc(-c2nccc(NC3CCNCC3)n2)c1
4	-24%	CC(O)(COc1ccccc1)c1ccc2c(c1)CN(Cc1cccnc1)CCO2 (configuration not stated)
5	112µM*	COc1cccc(Nc2ncc3nc(-c4ccc(F)cc4)c(=O)n(CCC#N)c3n2)c1
6	-21%	CC(C)C[C@@H](C=O)NC(=O)[C@H](CC(C)C)NC(=O)[C@H](CC(C)C)NC(=O)OCc1ccccc1
7	-90%[inhibitor]	C(=C\c1ccnc2ccccc12)/c1ccnc2ccccc12
8	-6%	O=c1c(-c2ccc(F)cc2)nc2cnc(Oc3ccccc3)nc2n1C1CC1
9	-8%	Cn1c(SCC2CCCO2)nnc1C1CCN(Cc2ccco2)CC1 (configuration not stated)
10	3%&-4%	Cn1cc(C(F)(F)F)nc1-c1ccc(OCC(O)CNCCOc2ccc(O)c(C(N)=O)c2)cc1 (configuration not stated)
11	9%	N[C@@H](Cc1cc(-c2ccc(Cl)cc2Cl)cc(CP(=O)(O)O)c1O)C(=O)O
12	-8%	COc1c(CO)cc(CO)cc(CO)c1=O
13	-17%	CC(=O)O[C@]1(C(C)=O)CC[C@H]2[C@@H]3C[C@H](C)C4=CC(=O)CC[C@]4(C)[C@H]3CC[C@@]21C
14	-1%	COc1ccccc1C1CN(CCNC(=O)c2cscn2)Cc2ccccc2O1 (configuration not stated)
15	-12%	C[C@@H]1C[C@H]2[C@@H]3C[C@H](F)C4=CC(=O)C=C[C@]4(C)[C@@]3(F)[C@@H](O)C[C@]2(C)[C@@]1(O)C(=O)CO
16	22%	O=C1CCC[C@@H]2C[C@@]3(C[C@@H]4CCN1[C@H]24)Nc1cc(Cl)ccc1NC3=NC1CCCCC1
17	-6%	Cc1ncc(CO)c(CN)c1O
18	-3%	O=C1CCN(CCc2ccccc2)CCN1[C@H](COc1ccccc1)Cc1ccccc1
19	-10%	O=C(NCc1ccon1)c1ccc(-c2csc3ccccc23)nc1N1CCC(N2CCCC(CO)C2)CC1 (configuration not stated)
20	-11%	C=CC(=O)c1ccc2ccccc2c1
21	-23%	C[N+](C)(C)CC(O)CC(=O)[O-] (configuration not stated)
22	5%	C[N+]1(C)CCN(CC(O)(c2ccccc2)C2CCCCC2)CC1 (configuration not stated)
23	19%	Cc1cnc(CNc2ncncc2-c2ccc3c(c2)OCO3)cn1
24	-33%	Cc1ccc(SCCN2CCC(O)CCC2=O)cc1 (configuration not stated)
25	-9%	COc1ccccc1C1CN(Cc2cn(C)nc2C)Cc2ccccc2O1 (configuration not stated)
26	1%	O=C(O)C[C@H](O)C[C@H](O)/C=C/c1c(C2CC2)nc2ccccc2c1-c1ccc(F)cc1
27	19%	O=c1cnc2cnc(Oc3cccc(Cl)c3)nc2n1CCc1ccccc1
28	11%	COc1ccc(-c2oc3cc(OC)ccc3c(=O)c2O)cc1
29	-39%[inhibitor]	C[C@H]1C[C@H]2[C@@H]3CCC4=CC(=O)C=C[C@]4(C)[C@@]3(F)[C@@H](O)C[C@]2(C)[C@@]1(O)C(=O)CCl
30	3%	C[C@@H]1CN(Cc2ccc3c(c2)CN(C(=O)CCc2nc4ccc(F)cc4[nH]2)CCO3)C[C@H](C)O1
31	-130%[inhibitor]	CC[N+](C)(C)c1ccc(/C=C/c2ccnc3ccccc23)cc1
32	-6%	COCC(=O)Nc1cc(Sc2ccccc2)ccc1N=C(NC(=O)OC)NC(=O)OC
33	4%	Cc1cccc(C(=O)NCc2nc(-c3ccccc3NC(=O)C3CCCO3)oc2C)c1 (configuration not stated)
34	-16%	NC(CCC(=O)NCS(=O)(=O)O)C(=O)O (configuration not stated)
35	15%	O=C(c1cccc(F)c1F)N1CCOc2ccc(CN3CCC(Oc4cccnc4)CC3)cc2C1
36	-20%	CC(C)[N+]1(C)[C@@H]2CC[C@H]1CC(OC(=O)[C@@H](CO)c1ccccc1)C2 (some centres not stated)
37	-16%	NC(N)=NCC1COC2(CCCCC2)O1 (configuration not stated)
38	-58%[inhibitor]	O=C(c1ccncc1)N1CCC2(CC1)CCN(c1ncccn1)CC2
39	14%	CCCOC(=O)C1NC(=O)N2C(C(=O)OCCC)C(C)(C)S[C@H]12 (some centres not stated)
40	1%&-22%	CC(=O)Nc1ccc(/C=N/NC(N)=S)cc1
41	-151%[inhibitor]	CC(C)=CCc1c2c(c3occ(-c4ccc(O)c(O)c4)c(=O)c3c1O)C=CC(C)(C)O2
42	13%	O=C1N=C(O)CN1/N=C\c1ccc(-c2ccc([N+](=O)[O-])cc2)o1
43	112µM*	COc1cccc(Cn2c(=O)c(-c3cccs3)nc3cnc(Nc4cccc(OC)c4)nc32)c1
44	13%&7%&4%&-6%	O=C(O)c1cc(=O)c2ccccc2[nH]1
45	?	COc1cccc(-c2ccc3ncnc(N(C)Cc4ccco4)c3c2)c1
46	-5%&13%	NCCCCC(=O)O
47	-15%	O=C(NCCCCCCNC(=O)ON=C1CCCCC1)ON=C1CCCCC1
48	14%	COc1ncc2ncc(=O)n(C[C@H]3CCCO3)c2n1
49	13%	CN(C)c1nc(-c2ccoc2)nc2ccccc12
50	-11%	Cc1cc(=O)cc2oc3cc(N)c(-c4c(C)cc(O)cc4O)c(C)c3nc1-2

Copied from the listing (14 entries):
item	EPAC1 agonist	SMILES
37	-16%	NC(N)=NCC1COC2(CCCCC2)O1 (configuration not stated)
38	-58%[inhibitor]	O=C(c1ccncc1)N1CCC2(CC1)CCN(c1ncccn1)CC2
39	14%	CCCOC(=O)C1NC(=O)N2C(C(=O)OCCC)C(C)(C)S[C@H]12 (some centres not stated)
40	1%&-22%	CC(=O)Nc1ccc(/C=N/NC(N)=S)cc1
41	-151%[inhibitor]	CC(C)=CCc1c2c(c3occ(-c4ccc(O)c(O)c4)c(=O)c3c1O)C=CC(C)(C)O2
42	13%	O=C1N=C(O)CN1/N=C\c1ccc(-c2ccc([N+](=O)[O-])cc2)o1
43	112µM*	COc1cccc(Cn2c(=O)c(-c3cccs3)nc3cnc(Nc4cccc(OC)c4)nc32)c1
44	13%&7%&4%&-6%	O=C(O)c1cc(=O)c2ccccc2[nH]1
45	?	COc1cccc(-c2ccc3ncnc(N(C)Cc4ccco4)c3c2)c1
46	-5%&13%	NCCCCC(=O)O
47	-15%	O=C(NCCCCCCNC(=O)ON=C1CCCCC1)ON=C1CCCCC1
48	14%	COc1ncc2ncc(=O)n(C[C@H]3CCCO3)c2n1
49	13%	CN(C)c1nc(-c2ccoc2)nc2ccccc12
50	-11%	Cc1cc(=O)cc2oc3cc(N)c(-c4c(C)cc(O)cc4O)c(C)c3nc1-2

(continued)
item	EPAC1 agonist	SMILES
51	8%	CN(Cc1ccco1)c1nc(-c2ccccc2C(F)(F)F)nc2ccccc12
52	13%	COc1ccccc1-c1ccc2ncnc(NCc3cccnc3)c2c1
53	18%	CC(=O)OCC(=O)C1CCC2C3CC=C4CC(O)CC[C@@]4(C)C3CC[C@]12C (some centres not stated)
54	-24%	CC(=O)c1c(O)c(C)c(O)c2c1OC1=CC(=O)C(C(C)=O)C(=O)C12C (configuration not stated)
55	-41%[inhibitor]	COCCn1c(=O)c(-c2ccccc2)nc2cnc(Nc3cccc(OC)c3)nc21
56	5%	COc1cc(=O)n2c(c1C(=O)NCc1ccco1)CCN(Cc1ccc(F)cc1Cl)CC2
57	-16%	CCc1nnc(NS(=O)(=O)c2ccc(N)cc2)s1
58	-141%[inhibitor]	C=CCCCCCCCCCCC/C=C/C(O)COC(C)=O (configuration not stated)
59	-43%[inhibitor]	COc1ccc(C(=O)N2CCC3(CC2)CCN(c2ncccn2)CC3)cc1
60	-56%[inhibitor]	Cc1nc2cnc(N3CCNCC3)nc2n(CCC#N)c1=O
61	-11%	CCN(CC)CCOC(=O)c1cccnc1
62	-56%[inhibitor]	CCNc1ncc2nc(CCc3ccccc3)c(=O)n(C)c2n1
63	100µM*	Cc1cc(N(C)C)cc(C)c1/C=C/c1ccnc2ccccc12
64	-38%[inhibitor]	O=c1c(-c2ccccc2)nc2cnc(N3CCNCC3)nc2n1C1CC1
65	-12%&0%	C[C@@H](CC(=O)O)[C@@H](N)C(=O)O
66	5%&-26%	NC(=O)CC[C@@H]1NC(=O)[C@H](Cc2ccccc2)NC(=O)[C@H](Cc2ccc(O)cc2)NC(=O)[C@@H](N)CSSC[C@@H](C(=O)N2CCC[C@H]2C(=O)N[C@@H](CCCN=C(N)N)C(=O)NCC(N)=O)NC(=O)[C@H](CC(N)=O)NC1=O
67	112µM*	O=C(C[n+]1cccc2cc(Cl)ccc21)c1ccc(Br)cc1
68	-9%	N[C@H](C(=O)O)C1[C@H](C(=O)O)[C@H]1C(=O)O (some centres not stated)
69	?	COc1cccc(C=NC=Nc2cccc(OC)c2)c1
70	?	COc1cccc(-c2nc(NCc3cccnc3)c3ccccc3n2)c1
71	-14%	COc1ccc(Cl)cc1N1C(=O)[C@@H]2C[C@H]1CN2Cc1nc2ccccc2nc1C
72	?	CC(=O)OCC(=O)[C@]1(O)C(OC(C)=O)CC2C3CCC4=CC(=O)C=C[C@@]4(C)[C@]3(F)C(O)C[C@]21C (some centres not stated)
73	-4%	C[C@](N)(COP(=O)(O)O)C(=O)O
74	?	Cc1cnc(CNc2nc(-c3ccc(N(C)C)cc3)nc3ccccc23)cn1
75	-10%	CC(CC(O)C1OC1(C)C)C1CCC2(C)C3=CCC4C(C)(C)C(=O)CCC4(C)C3CC[C@@]12C (some centres not stated)
76	-2%	COc1cccc(CNC(=O)c2c(OC)cc(=O)n3c2CCN(C(=O)c2ccc(C)s2)CC3)c1
77	8%&4%	COc1ccc2c(c1OC)C(=O)O[C@H]2C1c2c(cc3c(c2OC)OCO3)CCN1C (some centres not stated)
78	4%	Cc1ncc2c(c1CNC(=O)c1ccc3c(c1)OCO3)CCN(C(=O)c1cn3ccccc3n1)C2
79	12%	O=C1CCC[C@@H]2Cc3nc4ccc(Cl)cc4cc3[C@@H]3CCN1[C@H]23
80	-51%[inhibitor]	COCCn1c(=O)cnc2cnc(N3CCNCC3)nc21
81	?	COc1ncc2nc(CCc3ccccc3)c(=O)n(-c3ccccc3)c2n1
82	17%	O=[N+]([O-])c1cccc(CN2C[C@@]34C=C[C@@H](C[C@@H]3S2(=O)=O)O4)c1
83	2%	CCC(C(=O)OCCN(CC)CC)c1ccccc1 (configuration not stated)
84	2%	COC(=O)C(O)C1C(C)(C)C(OC(C)=O)C2CC3=C4CC(=O)OC(c5ccoc5)[C@]4(C)CCC3[C@@]1(C)C2=O (some centres not stated)
85	6%	COc1cccc(Cn2c(=O)c(C)nc3cnc(Nc4cccc(OC)c4)nc32)c1
86	-37%[inhibitor]	CC(=O)Nc1ccc(/C=C/c2ccccn2)cc1
87	?	Cc1cnc(CNc2nc(-c3ccc(C(=O)N(C)C)cc3)nc3ccccc23)cn1
88	-17%	O=c1cc(-c2ccc(O)c(O)c2)oc2ccccc12
89	-17%	Cc1c(-c2ccccc2)oc2c(C(=O)OCCN3CCCCC3)cccc2c1=O
90	9%	NNc1nnc(NN)c2ccccc12
91	17%	Cc1csc(SCC(=O)NCC2Cc3cc(-c4cncnc4)ccc3O2)n1 (configuration not stated)
92	-12%	O=c1cnc2cnc(Oc3ccccc3)nc2n1Cc1ccc(F)cc1
93	6%	N#Cc1ccccc1-c1ccc2ncnc(NCc3ccccc3)c2c1
94	-15%&9%	CC(C)=CCC/C(C)=C/CC/C(C)=C/CC/C=C(\C)CC/C=C(\C)CCC=C(C)C
95	-6%	CCCCC#Cc1nc(NC)c2ncn([C@@H]3O[C@H](CO)[C@@H](O)[C@H]3O)c2n1
96	-5%&-3%	Clc1ccc(-c2nc3sccn3c2/C=N/OCc2ccc(Cl)c(Cl)c2)cc1
97	15%	COc1ccccc1C1CN(Cc2cccc3nccnc23)Cc2ccccc2O1 (configuration not stated)
98	-93%[inhibitor]	O=C(Nc1cccc(F)c1)N1CC[C@@]2(CCCN(C(=O)c3cc(C(F)(F)F)cc(C(F)(F)F)c3)C2)C1
99	16%	O=C(NCC1Cc2cccc(-c3ccccn3)c2O1)c1cnn2cccnc12 (configuration not stated)
100	11%	O=C(Nc1ccccc1)N1CC2(CCN(C(=O)c3cccc(F)c3)CC2)C1

(cont.)
item	EPAC1 agonist	SMILES
101	-6%	CC(C)C[C@@H](NC(=O)[C@@H](O)[C@H](N)Cc1ccccc1)C(=O)O
102	20%	O=c1cnc2cnc(Oc3ccccc3)nc2n1C[C@H]1CCCO1
103	-13%	COc1cc(CNc2nc(C)c(-c3ccn(CC4CCCN(C)C4)n3)s2)ccc1F (configuration not stated)
104	14%	COc1c(O)cc2c(-c3ccccc3)cc(=O)oc2c1OC
105	-65%[inhibitor]	COc1ccc(NC(=O)N2CC3(CCN(S(=O)(=O)c4ccccc4)CC3)C2)cc1
106	-91%&-97%[inhibitor]	CC(C)=CCC/C(C)=C/CC/C(C)=C/CC/C(C)=C/CC1=C(C)C(=O)c2ccccc2C1=O
107	-8%	C1=C(c2ccc3c(c2)CN(Cc2cccn2-c2ncccn2)CCO3)Cc2ccccc21
108	4%	COc1ccccc1C1CN(Cc2cnn(C)c2C)Cc2ccccc2O1 (configuration not stated)
109	-8%	Nc1ccnc2c1ncn2[C@@H]1O[C@H](CO)[C@@H](O)[C@H]1O
110	3%&8%&-11%	CC(C)NCC(O)COc1cccc2ccccc12 (configuration not stated)
111	5%	COc1ccccc1-c1oc2ccccc2c(=O)c1O
112	-47%[inhibitor]	Cc1noc(C)c1-c1nccc(NCc2ccccc2)n1
113	-68%[inhibitor]	CCCCCCCCCCCCN1[C@@H](CC(=O)OC)c2cc(F)ccc2S1(=O)=O
114	-84%[inhibitor]	Cn1cccc1C(=O)N1CCC[C@@]2(CCN(C(=O)Nc3cccc(F)c3)C2)C1
115	?	Cc1cc[n+](CC(=O)c2ccccc2)c2ccccc12
116	0%	CCOC(=O)C[C@H]1c2cc(F)ccc2S(=O)(=O)N1C(C)C
117	100µM*	C=Nc1ccc(/C=C/c2ccnc3ccccc23)cc1
118	-8%	NCCNc1cccc2ccccc12

Source: PubChem BioAssay (National Center for Advancing Translational Sciences (NCATS))

This is a subset (hit frequency here may not be typical).
